Assay outcomes: PubChem BioAssay, ICCB-Longwood Screening Facility, Harvard Medical School
MgrA DNA FP: alters Staphylococcus aureus MgrA binding to DNA. AID 602314. fluorescence polarization. 84,000 tested, 0.13% active. inhibition, %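 (about 10 µg/mL by stock and volumes)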;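 active = above 50% in either of two replicates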;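 also: 0% = protein plus DNA without compound and 100% = DNA alone without protein; higher means less MgrA bound to DNA so lower polarization; one replicate is shown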
Sa helicase inh: blocks Staphylococcus aureus DNA helicase; inhibition, %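 (tested at about 80 µM)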; AID 485395; 120,000 tested, 0.05% active; purified S. aureus helicase, fluorescence unwinding assay; about half of the hits fall short of the stated cut;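 active = both duplicates at 50% or more, or one of them with a favoured structure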;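 also: 0% = mean of negative control wells and 100% = mean of positive control wells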
An asterisk follows results filed as active; . = not tested or not shown; & = joins results of further samples. Some of the compounds tested; count on the stated rates, not on these rows.

Values in the order: MgrA DNA FP, Sa helicase inh
> CC(C)C1C(C#N)=C(N)Oc2c1oc(CO)cc2=O (centres undefined)
→ ., 9
> COc1ccc(C(CC(=O)NCc2ccc(C)cc2)N2Cc3ccccc3C2=O)cc1OC (centres undefined)
→ 0.3, 5
> CC(C)COC(=O)C1C2C=CC3(CN(Cc4cccs4)C(=O)C13)O2 (centres undefined)
→ -1.0, -3
> O=C(Cn1cc(C(=O)C2CCCCC2)c2ccccc21)Nc1ccccc1
→ -1.3, -5
> Cc1cc2nc3c(=O)[nH]c(=S)[nH]c3nc2cc1NC(=O)C(F)(F)F
→ ., -93
> COc1ccc(N2C(=O)NC(=O)/C(=C\c3ccc(OCC(=O)O)c(Br)c3)C2=O)cc1
→ 2.7, .
> Cc1cccc(-c2nc(CS(=O)CC(=O)NC3CCCCCC3)c(C)o2)c1 (centres undefined)
→ 1.0, 13
> Cc1cc(OCC(=O)Nc2ccccc2N2CCN(C(=O)C(C)C)CC2)cc(C)c1Cl
→ -0.7, 5
> CC1(CCC#N)N=C(SCCC#N)N(c2ccccc2)C1=O (centres undefined)
→ -2.0, 19
> O=C(CSc1nnc2sc3ccccc3n12)NCC(F)(F)F
→ ., 2
> CCCCN(C)C(=O)Cn1nc(C)c2c(C)n(-c3ccccc3)nc2c1=O
→ ., -18
> CC(C)N(C(=O)CSc1nnnn1C1CCCC1)C(C)C
→ -4.2, 17
> O=C(CN1C(=O)/C(=C/c2ccccc2)SC1=S)NC1CCCCC1
→ ., -5
> O=C(NC(C(F)(F)F)C(F)(F)F)OCc1ccccc1
→ 1.6, -10
> CC(C)C(OC(=O)c1ccco1)C(=O)NCc1ccccc1 (centres undefined)
→ -0.8, 6
> CCC(=O)Oc1ccc(C(=O)N2CCCCC2)cc1
→ 1.6, 9
> CCCc1c(C(=O)Sc2ccc(Cl)cc2)cnn1-c1ccccc1
→ -0.1, .
> O=C(CSc1cccc[n+]1[O-])Nc1ccccc1
→ -1.4, -18
> COc1ccc(C)cc1-n1c(SCC#N)nc2sc(C)c(C)c2c1=O
→ ., 2
> O=C(NNc1ccccc1)c1ccccc1
→ ., 7
> N=C(N)SCc1ccccc1Cl
→ -0.8, .
> Cc1ccc(CNc2ccc(Cl)cc2)s1
→ -1.6, 19
> Cc1noc(/C=C/c2ccco2)c1S(=O)(=O)N1CCC(C(=O)O)CC1
→ 4.3, -11
> CN(C)C=NC(=O)c1sc(S(C)(=O)=O)c2c1CCC=C2
→ -1.9, .
> Cc1cccc(/C=C2\SC(=O)N(C)C2=O)c1
→ 2.9, 7
> CC(=O)Nc1ccc2c(CSc3nncs3)cc(=O)oc2c1
→ ., -5
> CC1CCN(c2ncnc3c2cnn3Cc2ccc(Cl)cc2)CC1
→ 0.2, 4
> CCN(C(=O)c1cnccc1C(F)(F)F)c1ccc(Cl)cc1Cl
→ 0.0, .
> CC(Sc1nncn1C)C(=O)Nc1ccc(S(N)(=O)=O)cc1 (centres undefined)
→ ., -8
> CNS(=O)(=O)c1cn(CC(=O)N2CCc3ccccc32)cc1S(=O)(=O)NC
→ ., 20
> CCOC(=O)c1ccc(NC2CCCc3c2[nH]c2ccc(C)cc32)cc1 (centres undefined)
→ 0.2, 9
> CCCCc1nc2sc3c(=O)[nH]cnc3c2c2c1CCCC2
→ ., 15
> COc1cc(C2NC(=O)NC(C)=C2C(=O)OCC2CCCCC2)cc(Cl)c1O (centres undefined)
→ -0.5, .
> C=CCc1cccc(Cl)c1OCCNCc1ccco1
→ 0.7, 8
> COc1cccc(C(=O)NCc2ccc3c(c2)cc(C)n3C)c1
→ ., 11
> Cc1c(C(=O)/C=C/N(C)C)nnn1-c1ccc(Cl)cc1C#N
→ ., 13
> Cc1cc(C)c2c(-n3cccc3)c(C(=O)N(C)Cc3ccccc3)sc2n1
→ 0.0, 20
> COc1cc(/C=C/C(=O)NC23CC4CC(CC(C4)C2)C3)cc(OC)c1OC
→ 0.9, -25
> COC(=O)c1cc(=O)n(Cc2cccs2)c(=Nc2ccccc2)s1
→ ., -2
> COCC(C)n1c(-c2cccs2)csc1=Nc1cccnc1 (centres undefined)
→ ., -23
> Cc1c(NC(=O)Nc2ccccn2)sc2nc3n(c(=O)c12)CCC(C)CC3 (centres undefined)
→ ., 19
> N#Cc1ccc(COC(=O)c2ccccc2)cc1
→ -2.2, 7
> Cc1ccc(NC(=O)Cn2c(=O)n3nc(C)nc3c3ccccc32)cc1
→ ., 9
> O=C1NC(=O)C2C1C(c1ccco1)NN2Cc1ccccc1 (centres undefined)
→ 7.4, -13
> CCOC(CN(C(=O)c1ccc([N+](=O)[O-])cc1)c1ccc(F)cc1)OCC
→ -2.7, .
> Clc1ccc(Cn2ccc3ccccc32)cn1
→ -3.4, .
> CCCOC(=O)C1C2C=CC3(CN(CC4CCCO4)C(=O)C13)O2 (centres undefined)
→ ., 27
> Nc1[nH]c(=O)[nH]c(=O)c1N=Nc1ccc(S(=O)(=O)N2CCOCC2)cc1
→ ., 5
> CCN(CC)c1ncccc1C(=O)NCc1cccs1
→ 0.3, -2
> O=C(OCCN1C(=O)c2cccc3c(N4CCCCC4)ccc(c23)C1=O)c1cc([N+](=O)[O-])cc([N+](=O)[O-])c1
→ -0.9, .
> NC(=O)NS(=O)(=O)c1ccc(N)cc1
→ -2.5, 5
> CC1CCN(C(=O)COC(=O)c2cccs2)CC1
→ -0.7, 17
> O=C(Nc1cc2ccccc2oc1=O)c1ccccc1
→ ., 24
> O=C(OCCN1C(=O)c2ccccc2C1=O)c1ccc(-n2cnnn2)cc1
→ ., -2
> Cn1c(SCc2nnc(-c3ccc(Cl)cc3)o2)nc2sccc2c1=O
→ ., 10
> Cc1cc2nc(N3CCCC3C(N)=O)c3ccccc3n2n1 (centres undefined)
→ ., -7
> O=C(Sc1n[nH]c(C(F)(F)F)n1)c1ccc(C#Cc2ccccc2)o1
→ 20, .
> O=[N+]([O-])c1cc(/C=N/N2CCOCC2)cs1
→ -0.1, .
> Cn1c(=O)c(C(=O)NCCCc2ccccc2)cc2cccnc21
→ ., 7
> COc1ccc(-n2ncc(NC(=O)NCc3ccccn3)c2C)cc1
→ 1.2, .

Full records from above:
Record of Nc1[nH]c(=O)[nH]c(=O)c1N=Nc1ccc(S(=O)(=O)N2CCOCC2)cc1 → MgrA DNA FP = .; Sa helicase inh = 5
Record of CCCOC(=O)C1C2C=CC3(CN(CC4CCCO4)C(=O)C13)O2 (centres undefined) → MgrA DNA FP = .; Sa helicase inh = 27

Other structures follow.
Values in the order: MgrA DNA FP, Sa helicase inh
> CCC(CC)C(=O)Nc1cccc(C(=O)NCc2ccco2)c1
→ 5.3, -11
> CN1C(C)(C)CC(NC(=O)c2ccco2)CC1(C)C
→ ., 19
> c1ccc2c(-c3csc(-c4ccc(-c5ccno5)s4)n3)csc2c1
→ ., -9
> COc1ccc(Br)cc1C(=O)NCc1cccnc1
→ 0.7, 4
> COC(=O)c1ccccc1NC(=O)c1c(C)nn(-c2ccccc2)c1-n1cccc1
→ -5.7, 0
> Cc1cccc(Cn2ccn(Cc3ccccc3)c(=O)c2=O)c1
→ ., 20
> Cc1ccc(CSc2nc3ccccc3[nH]2)cc1
→ -2.0, .
> O=C(/C=C/c1ccccc1)NCCO
→ 2.3, .
> CCCc1cc2c(-c3ccccc3)cc(=O)oc2cc1OC(C)=O
→ ., 23
> c1ccc(Cn2nnnc2C(c2ccccc2)N2CCN(Cc3ccncc3)CC2)cc1 (centres undefined)
→ -4.8, 15
> Cc1nc(C)nc(NC(=O)NC(=O)c2cc(OCC(F)(F)F)ccc2OCC(F)(F)F)n1
→ ., -12
> CCN(CC)CCCN1C(=O)C(=O)/C(=C(/O)c2cc(C)ccc2C)C1c1cccs1 (centres undefined)
→ -1.5, -5
> Cc1ccc(S(=O)(=O)NC(=O)CC#N)cc1
→ 0.1, -4
> Cc1nc(C(F)(F)F)ccc1C(=O)Nc1nc2ccsc2c(=O)s1
→ -1.6, .
> CNC(=S)NN(Cc1ccccc1)c1ccccc1
→ ., 4
> O=C1NCN(c2ccccc2)C12CCN(CCCC(c1ccc(F)cc1)c1ccc(F)cc1)CC2
→ 4.9&-0.1, .
> CC1(C)Cc2c(c(N3CCOCC3)nc3sc4c(c23)N2C(=O)CCC2(C)NC4=O)CO1 (centres undefined)
→ -0.5, -1
> Cc1ccc2c(c1)CCCN2C(=O)C1CCCO1 (centres undefined)
→ 1.6, 1
> COc1cccc(CN2C(=O)C3(C(C#N)=C(N)OC4=C3C(=O)CCC4)c3ccccc32)c1 (centres undefined)
→ -1.1, 7
> O=c1c2c([nH]n1-c1ccccc1)CCSC2
→ -2.6, .

An excerpt of these results, as labelled records:
> c1ccc(Cn2nnnc2C(c2ccccc2)N2CCN(Cc3ccncc3)CC2)cc1 (centres undefined)
  MgrA DNA FP = -4.8; Sa helicase inh = 15

> O=c1c2c([nH]n1-c1ccccc1)CCSC2
  MgrA DNA FP = -2.6; Sa helicase inh = .

> CN1C(C)(C)CC(NC(=O)c2ccco2)CC1(C)C
  MgrA DNA FP = .; Sa helicase inh = 19

> COc1ccc(Br)cc1C(=O)NCc1cccnc1
  MgrA DNA FP = 0.7; Sa helicase inh = 4

More entries.
Values in the order: MgrA DNA FP, Sa helicase inh
> COc1nc2sccn2c1/C=N/N1CC(=O)NC1=O
→ ., -10
> O=C(c1sc2cc(F)ccc2c1Cl)N1CCCCCC1
→ -0.2, 0
> O=C(OCC(=O)N1CCCCC1)c1cccc2ccccc12
→ ., -18
> CCCNC(=O)c1ccc2ncsc2c1
→ ., -9
> CCOC(=O)c1c(-c2ccccc2)oc2c1cc(OC(=O)C(C)(C)C)c1ccccc12
→ 0.0, .
> CN(C)/C=C/C=C/c1cc(=O)cc(/C=C/C=C/N(C)C)o1
→ 100*, 7
> O=C(CCCCn1c(=O)[nH]c2ccsc2c1=O)N1CCN(c2ccccc2)CC1
→ ., 22
> O=c1c2ccc(Cl)cc2nc(SCc2nnc(-c3cccs3)o2)n1Cc1ccco1
→ ., -5
> CC(C)OP(C)(=O)CN1CCCC1=O (centres undefined)
→ ., -15
> CCOc1ccccc1NC(=O)c1ccc2nc[nH]c2c1
→ ., 0
> CC1CCC(NS(=O)(=O)c2ccc3c(c2)n(C)c(=O)c(=O)n3C)CC1 (centres undefined)
→ 0.0, -7
> CCCN1CCN(S(=O)(=O)c2cc(OCC)c(-n3cnnn3)cc2OCC)CC1
→ ., -15
> Cc1nc(SCC(C)C)c(C#N)c(C)c1C
→ 0.1, 17
> CCC(O)c1nc2ccccc2n1CCOc1ccc(C)c(C)c1 (centres undefined)
→ ., 10
> CSc1cccc(N=Cc2oc(O)c3ccccc23)c1
→ 2.1, .
> CCC(C)OC(=O)C1=C(C)NC2=C(C(=O)CC(c3ccc(OC)cc3)C2)C1c1cc2c(cc1[N+](=O)[O-])OCO2 (centres undefined)
→ -1.7, .
> OC(CN1CCOCC1)Cn1c2ccccc2c2ccccc21 (centres undefined)
→ -1.1, 14
> Cc1cccc(Nc2nc(CC(=O)O)cs2)c1
→ -0.2, 14
> CCS(=O)(=O)c1ccc(O)c(N2C(=O)C3C4C=CC(C4)C3C2=O)c1 (centres undefined)
→ ., -4
> O=C(c1c(Cl)nc2sccn12)N1CCCc2ccccc21
→ -1.2, -14
> O=C1CCC(=O)N1c1cccc(-c2nc3ccccc3o2)c1
→ ., -3
> COc1ccc(NC(=O)CN2CCC(N3CCCCC3)CC2)c(OC)c1
→ -2.0, 0
> CCn1c(=NC(=O)c2ccc(S(=O)(=O)N(C)C)cc2)sc2cc(C(=O)OC)ccc21
→ ., 10
> COc1ccccc1C(=O)NCCC(=O)Nc1ccc(N2CCN(C)CC2)cc1C
→ ., 22
> COc1ccc(Cn2c(=O)[nH]c3cc(C(=O)NC4CCCCC4)ccc3c2=O)cc1
→ 1.3, 10
> COc1ccc(-c2[nH]c3ccccc3c2SCCNC(=O)c2ccc3c(c2)OCO3)cc1
→ 4.3, 11
> O=C(CSc1nnc(Cc2ccccc2)o1)c1ccc(SC(F)F)cc1
→ 1.8, .
> Cc1[nH]n(-c2ccccc2)c(=O)c1S(=O)(=O)c1ccccc1
→ -2.2, -16
> CCc1nnc2c(NCC3CCCO3)nc3ccccc3n12 (centres undefined)
→ ., 10
> CCOC(=O)c1cc(-c2ccccc2)n(-c2ccc(C(=O)O)cc2)c1C
→ 3.9, 4
> COc1ccc(Cc2nnc3n2N=C(c2ccc(C)c(C)c2)C(C)S3)cc1OC (centres undefined)
→ ., -8
> O=C(CSC1CCCC1)c1ccccc1F
→ -1.4, -6
> OCCNc1nc2ccccc2n1Cc1ccccc1
→ -0.8, -13
> COc1ccc(C2C(C(=O)NCC3CCCO3)CCC(=O)N2c2ccc3c(c2)OCO3)cc1 (centres undefined)
→ ., 4
> O=C1NN=C2CC34CCC12CC3=NNC4=O
→ ., -5
> Cc1c(C2=CCN(S(=O)(=O)Cc3ccccc3)CC2)c2ccccc2n1CC(=O)N1CCCC1
→ ., 13
> COc1ccccc1OCCSc1nc(-c2ccccc2)c(-c2ccccc2)[nH]1
→ 1.3, 7
> Cc1cc(NS(=O)(=O)c2cc(Cl)sc2Cl)no1
→ -2.7, .
> OCC(O)CN1CCc2ccccc21 (centres undefined)
→ 3.8, 0
> CN(C)c1cc(N)c2c(n1)CCC2
→ 0.5, 17
> O=C(O)/C=C/C(=O)NC1CCN(c2nccc(C(F)(F)F)n2)CC1
→ -2.3, .
> CC1(c2ccccc2)OC(=O)C(C#N)C12CCCCC2 (centres undefined)
→ 3.6, -6
> COc1ccc(C2=C(C#N)C(=O)OC2)cc1
→ 0.4, .
> N#CC1=C(N)n2c(nc3ccccc32)NC1c1ccc(Cl)cc1 (centres undefined)
→ -0.1, 6
> COC(=O)C1=C(Nc2ccccc2NS(=O)(=O)c2cn(C)cn2)CSC1
→ 0.6, .
> Cc1c(Cl)c(O)c(Cl)c(C)c1N(S(=O)(=O)c1ccccc1)S(=O)(=O)c1ccccc1
→ 2.6, 9
> COc1cccc(NC(=O)CCSc2nnc3ccc4ccccc4n23)c1
→ -2.7, 6
> CCN(Cc1ccccc1)C(=O)c1cccc(C#N)c1
→ ., -6
> Nc1ncnc(N2CCc3ccccc32)n1
→ 2.7, 4
> CCOc1ccc(-c2nc(COC(=O)c3cccc(-n4cnnn4)c3)cs2)cc1OC
→ ., -7
